TRPML1 inh: blocks the human TRPML1 channel. Q9GZU1. TRPML1-inducible cells, Ca2+ dye fluorescence, FDSS; active compounds read low; inhibition of EC80 agonist-evoked calcium signal. activity change, negative = inhibition, % (test concentration not listed). actives 0.02% (n = 390,000); in the data active means activity change below about -50%; inconclusive means about -30% to -50%; inactive means above about -30%;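 also: stimulus is agonist 54-4 at its EC80 concentration; % is scaled to controls: 0 for no effect and ±100 for the full control effect; compound concentration not given in the record; the text of the record puts the active cut at -80%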
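Calcium fluorescence in TRPML1-DL cells induced overnight with Tet: a 110 s read after compound pin addition, then a 110 s antagonist read after challenge with 54-4 at 4 uM final (EC80).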
ClpP mod: qHTS Assay for Activators of ClpP. actives 1.9% (n = 340,000). Potency, µM (highest dose often 57.5 µM), inactives show at the top dose activity change, negative = active. purified B. subtilis ClpP, FRET peptide cleavage, 20 min. ATP-dependent Clp protease proteolytic subunit (Bacillus subtilis (strain 168)), P80244. AID 651965, 2013; active = well fitted falling curve with a large enough effect; inconclusive = small, poorly fitted or top-dose-only effect; inactive = no such curve, though single readings can be large or run the other way; also: potency is read from the fitted curve at half-maximal effect; the source files actives as falling curves though it sought activators and does not explain the sign; nearly all actives have a fitted effect of over 65% in size; many hits overshoot -100%
Target sequence (P80244 whole entry, looked up): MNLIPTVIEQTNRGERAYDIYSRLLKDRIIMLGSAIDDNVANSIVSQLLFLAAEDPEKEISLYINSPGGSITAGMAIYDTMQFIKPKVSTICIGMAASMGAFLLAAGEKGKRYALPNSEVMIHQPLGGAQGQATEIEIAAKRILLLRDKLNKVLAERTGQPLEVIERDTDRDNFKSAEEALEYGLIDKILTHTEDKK
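Purified B. subtilis ClpP, 10 microg/mL final in Tris/HCl pH8 with KCl, BSA, glycerol and Tween-20, cleaved an Abz/nitrotyrosine-quenched decapeptide. Fluorescence (ex 320, em 430) was read at 0 and 20 min at room temperature. Delta was normalized to 5.8 microM ADEP and DMSO/no-enzyme controls.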
gsp agonist: activates gsp, the McCune-Albright syndrome mutation; gsp mutant cells, cAMP HTRF, 30 min; control for the full effect not named in the record; Potency, µM (top dose mostly 76.9 µM), for inactives: top-dose activation (cAMP increase), actives largely listed as activators; actives 0.13% (n = 340,000); active = well fitted activation curve with a large enough effect; inconclusive = small, poorly fitted or top-dose-only effect, or another doubt; inactive = no such curve, though single readings can be large or run the other way; cell line not stated here;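 also: phosphodiesterase inhibitor Ro 20-1724 added with compounds to block cAMP breakdown; potency is read from the fitted curve at half-maximal effect; nearly all actives have a fitted effect of over 60% in size; about a fifth of the inactives were tested at one dose only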
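Cells in DMEM/10% FBS with G418 were pretreated with compounds in DMSO plus […] (300 uM stock) for 30 min at 37C. cAMP was measured by HTRF (cAMP-d2 plus anti-cAMP antibody-K) after 30 min at room temperature.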
Menin MLL FP FL: menin-MLL binding inhibition, fluorescein peptide | FP activity change, % at 61.4 µM | 290,000 tested, under 10 active | AID 1766 | Fluorescence polarization, fluorescein-MLL peptide displacement from menin; inconclusive = falling polarisation curve, or a change in total fluorescence; inactive = total fluorescence flat and polarisation flat or rising; no compound was filed as active; the % refers to the polarisation; negative = inhibition;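 also: % of control where 0% means no effect; inhibitors lower the polarisation; unlabelled MLL peptide was the positive control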
TRPV1 PAM: human TRPV1 potentiation; TRPV1-expressing cells, Fluo-8 calcium influx, capsaicin EC20 potentiation; host cell line not named in the record; control for the full effect not named in the record; potentiation, % at 8.33 µM; actives 0.02% (n = 320,000); AID 540277; active means potentiation above 80%; inconclusive means 30% to 80%; inactive means below 30%; also: 0% is about no effect
Target sequence (Q8NER1 whole entry, looked up): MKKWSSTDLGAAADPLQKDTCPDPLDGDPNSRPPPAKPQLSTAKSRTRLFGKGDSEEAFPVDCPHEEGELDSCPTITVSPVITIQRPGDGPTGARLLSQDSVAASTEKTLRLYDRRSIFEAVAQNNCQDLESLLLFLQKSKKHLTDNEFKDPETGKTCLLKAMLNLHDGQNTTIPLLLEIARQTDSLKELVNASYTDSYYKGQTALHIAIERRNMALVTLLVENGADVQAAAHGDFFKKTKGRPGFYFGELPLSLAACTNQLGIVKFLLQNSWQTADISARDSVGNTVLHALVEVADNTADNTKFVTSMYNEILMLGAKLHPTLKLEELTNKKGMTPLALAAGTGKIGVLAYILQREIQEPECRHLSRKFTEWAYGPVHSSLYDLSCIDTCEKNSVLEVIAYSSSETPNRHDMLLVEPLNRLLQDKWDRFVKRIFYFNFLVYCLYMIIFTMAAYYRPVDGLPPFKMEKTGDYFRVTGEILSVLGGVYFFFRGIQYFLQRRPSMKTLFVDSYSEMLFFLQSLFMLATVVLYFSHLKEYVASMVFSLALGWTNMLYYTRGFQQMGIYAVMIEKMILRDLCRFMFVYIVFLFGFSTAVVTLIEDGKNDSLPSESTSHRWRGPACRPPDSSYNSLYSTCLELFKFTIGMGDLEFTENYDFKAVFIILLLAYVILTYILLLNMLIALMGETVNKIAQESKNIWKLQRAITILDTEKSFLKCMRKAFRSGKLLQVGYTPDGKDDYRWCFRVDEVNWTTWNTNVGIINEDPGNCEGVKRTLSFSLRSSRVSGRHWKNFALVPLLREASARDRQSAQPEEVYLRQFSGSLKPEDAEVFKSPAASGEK
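Fluo-8 calcium influx in TRPV1-expressing cells, kinetic read (ex 480/em 520 nm). Compound added and read 3 min for agonist activity, followed by capsaicin at EC20 final and 2 min further read for enhancement.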
gsp antagonist: antagonizes gsp, the McCune-Albright syndrome mutation | gsp-mutant cells, cAMP HTRF, 30 min; control for the full effect not named in the record | Potency, µM (highest dose often 76.9 µM), for the others: top-dose activity change, negative = inhibition, most hits filed as inhibitors | actives 0.4% (n = 340,000) | AID 624288; active = falling curve of any shape with a large fitted effect; inconclusive = falling curve, mostly with a smaller effect; inactive = flat or rising curve; cell line not stated here;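 also: intracellular cAMP measured with PDE inhibitor Ro 20-1724 present during compound exposure; potency is read from the fitted curve at half-maximal effect; % is scaled to controls: 0 for no effect and ±100 for the full control effect; nearly all actives have a fitted effect of over 65% in size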
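Cells, 2000/well, grown 16–24 h in DMEM 10% FBS with 0.5 mg/ml G418, then compounds plus […] (300 uM addition stock), 30 min at 37C. cAMP read by HTRF (cAMP-d2 and anti-cAMP antibody-K in lysis buffer) after 30 min RT.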
Sfp PPTase inh: Sfp phosphopantetheinyl transferase inhibition; Q9F4F7; Biochemical Sfp PPTase activity, qHTS; Potency, µM, for inactives: max response, negative = inhibition, hits mostly inhibitors; actives 3.5% (n = 310,000); AID 1490; active = well fitted inhibition curve with a large enough effect; inconclusive = small, poorly fitted or top-dose-only effect, or another doubt; inactive = no such curve, though single readings can be large or run the other way;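 also: the enzyme is Sfp with the accession as filed and its product quenches rhodamine fluorescence; potency is read from the fitted curve at half-maximal effect; 0% = enzyme reaction without inhibitor and -100% = no enzyme wells; top concentration of the series not given in the record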
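After 15 min at room temperature with compound, 15 nM Sfp received 5 uM rhodamine-CoA plus 12.5 uM BHQ-2-ybbR (50 mM Hepes pH 7.6, 10 mM MgCl2). Rate came from the fluorescence difference over 30 min, ex 525/em 598 nm.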
An asterisk follows results filed as active; ? = inconclusive; . = not tested or not shown; & = joins results of further samples; [ ] = dose if it differs, or a comment.

no.	structure	gsp antagonist	gsp agonist	TRPV1 PAM	TRPML1 inh
1	COc1ccc(CC(=O)Nc2ccc(-c3cn4ccccc4n3)cc2)cc1	1%	11%	?	-6
2	C[C@H](NC(=O)c1ccc(Br)cc1)C(=O)NCc1ccc(S(N)(=O)=O)cc1	1%	-15%	10	16
3	CCC1S/C(=N/N=C/c2cccs2)NC1=O (stereo not drawn)	2%	-36%[inhibitor]	8	-3
4	CCC(C(=O)OCC(=O)Nc1cccc(C(C)=O)c1)c1ccccc1 (stereo not drawn)	-5%	-21%	-24	42
5	O=C(CSc1nnc(NC(=O)c2c(F)cccc2F)s1)Nc1ccc(F)cc1	-18%	-26%	11	6
6	COC(=O)COc1ccc(S(=O)(=O)N2CCOCC2)cc1	5%	1%	2	3
7	CCn1cc(C(=O)N[C@H](C(=O)NCCCN2CCOCC2)C(C)C)c(=O)c2cc3c(cc21)OCO3	6%	-30%[inhibitor]	9	5
8	O=C(Cc1cn2ccsc2n1)OCc1ccccc1	7%	-2%	7	-4
9	CC(=O)Nc1ccc(Cl)cc1C1COC(=O)C1=N (stereo not drawn)	13%	-21%	2	-11
10	CC(C)c1nc(SCc2ccccn2)c2c(=O)n(C)c(=O)n(C)c2n1	-18%	2%	-9	-4
11	O=C(O)CCNS(=O)(=O)c1ccc2c(c1)OCCCO2	8%	14%	1	40
12	CC(C)C1Oc2ccccc2N(CC(=O)N(C)C2CCCCC2)C1=O (stereo not drawn)	-5%	2%	-4	-1

no.	Menin MLL FP FL	ClpP mod	Sfp PPTase inh
1	3.5	28µM*	-9%
2	4.0	.	8%
3	9.4	-0.9%	8%
4	2.5	.	18%
5	1.7	2.6%	19%
6	1.6	0.5%	5%
7	-8.8	1.0%	2%
8	2.2	-5.0%	-2%
9	-0.7	-3.7%	1%
10	0.4	-0.4%	-1%
11	0.1	0.5%	8%
12	.	.	21%

The results go on.
no.	structure	gsp antagonist	gsp agonist	TRPV1 PAM	TRPML1 inh
13	Cc1c(N2C(=O)CS/C2=N\N=C\c2ccc(Cl)cc2)c(=O)n(-c2ccccc2)n1C	-12%	-10%	0	18
14	CS(=O)(=O)N(CC(=O)Nc1ccccc1C(=O)N1CCOCC1)c1cccc(F)c1	-2%	-38%[inhibitor]	15	-2
15	O=C(NC(c1ccccc1)c1ccccc1)N1CCN(CCO)CC1	10%	-2%	-31	2
16	Fc1cccc(NC(=S)NCc2ccccn2)c1	8%	-30%[inhibitor]	-29	2
17	COc1ccccc1N1CCN(C(=O)NC23CC4CC(CC(C4)C2)C3)CC1	7%	-1%	8	-28
18	Cc1cc(NC(=O)CCOc2ccc(F)cc2)no1	-9%	-35%[inhibitor]	0	6
19	C[C@H](CO)N1C[C@H](C)[C@H](CN(C)C(=O)CC2CC2)Oc2cc(Br)ccc2S1(=O)=O	.	2%	.	21
20	CCn1c(SCC(=O)O)nc2sc3c(c2c1=O)CCC3	-7%	3%	0	12
21	Nc1ccc(S(=O)(=O)N2CCCc3ccccc32)cc1	1%	-22%	-2	-1
22	O=C(CC1C(=O)NCCN1Cc1ccc(Cl)c(F)c1)NCC1CCOCC1 (stereo not drawn)	4%	-15%	2	11
23	Cc1c(NC(=O)C2(C)CCCCC2)c(=O)n(-c2ccccc2)n1C	13%	9%	-15	-5
24	COc1cc2c(cc1OC)[C@H](Cc1ccc(O)cc1)NCC2	5%	12%	16	-8

no.	Menin MLL FP FL	ClpP mod	Sfp PPTase inh
13	9.4	-0.5%	9%
14	.	-3.7%	22%
15	0.6	0.5%	5%
16	2.5	-3.8%	-20%
17	3.7	-2.4%	13%
18	1.4	.	-5%
19	.	1.9%	.
20	4.5	-0.3%	26%
21	0.8	1.8%	-1%
22	0.3	-6.8%	-2%
23	-0.1	-0.1%	-12%
24	3.2	2.2%	-12%

Of the compounds above, these contain bromine:
no.	structure	gsp antagonist	gsp agonist	TRPV1 PAM	TRPML1 inh
2	C[C@H](NC(=O)c1ccc(Br)cc1)C(=O)NCc1ccc(S(N)(=O)=O)cc1	1%	-15%	10	16
19	C[C@H](CO)N1C[C@H](C)[C@H](CN(C)C(=O)CC2CC2)Oc2cc(Br)ccc2S1(=O)=O	.	2%	.	21

no.	Menin MLL FP FL	ClpP mod	Sfp PPTase inh
2	4.0	.	8%
19	.	1.9%	.

New compounds follow:
no.	structure	gsp antagonist	gsp agonist	TRPV1 PAM	TRPML1 inh
25	Cc1ccc(NC(=O)C2=C(c3ccccc3)S(=O)(=O)CCS2(=O)=O)cc1	28µM*	-28%[15.4 µM]	?	3
26	CC1CCC(C(C)C)C(OCC(O)CN2CCOCC2)C1 (stereo not drawn)	-4%	-8%	-13	3
27	CCOCCCNC(=S)N1C2CCC1CC(NC(=O)Nc1ccc(C(=O)OCC)cc1)C2 (stereo not drawn)	-14%	-1%[15.4 µM]	19	-10
28	COC(=O)C1=C(C)OC(N)=C(C#N)C1c1cc(OC)ccc1OC (stereo not drawn)	-18%	-4%	.	-7
29	COc1ccc(OC)c(C(=O)N2CCC(CCC(=O)NC3CC3)CC2)c1	11%	14%	-14	39
30	COC(=O)C1=C(C)Nc2ncnn2C1c1ccc(OCc2ccccc2)cc1 (stereo not drawn)	8%	-26%	1	4
31	Cc1n[nH]c(=O)c2c(NC(=O)COC(=O)c3cc(F)cc(F)c3)oc(C)c12	-11%	6%[15.4 µM]	-1	-1
32	O=C(Nc1ccc(F)c(F)c1)c1ccc(F)c(S(=O)(=O)N2CCC3(CC2)OCCO3)c1	-23%	?	6	9&19
33	Cc1ccc(N2CC(=O)Nc3c(sc4nc(C)cc(C)c34)C2=O)cc1	6%	?	10	-5
34	O=C(COc1ccc2c(C(F)(F)F)cc(=O)oc2c1)NCc1cccs1	5%	3%	-16	6
35	Cc1nc(-c2nnc(SCC(=O)Nc3cc(C(F)(F)F)cc(C(F)(F)F)c3)n2C)cs1	0%	-3%	-4	-5
36	COc1cccc(CNC(=O)C(=O)NCC2OCCCN2S(=O)(=O)c2cc(C)ccc2C)c1 (stereo not drawn)	-17%	-8%[15.4 µM]	-3	28

no.	Menin MLL FP FL	ClpP mod	Sfp PPTase inh
25	0.2	.	16µM*
26	2.1	-1.3%	7%
27	0.1	.	19%
28	3.7	1.7%	-3%
29	-2.9	-4.2%	14%
30	1.8	-4.8%	4%
31	.	.	.
32	3.9	2.1%&0.0%	-7%
33	0.6	.	17%
34	?	?	-10%
35	1.3	2.8%	4%
36	.	1.5%	7%

The results go on.
no.	structure	gsp antagonist	gsp agonist	TRPV1 PAM	TRPML1 inh
37	CCCc1cc(C(=O)NC2CCCC2)no1	-1%	-19%	-4	-9
38	COc1ccccc1N1CCN(C(=O)Cn2cnc3c2c(=O)n(C)c(=O)n3C)CC1	5%	14%[15.4 µM]	.	25
39	CN(C)CCC1(C2=CCCC2)CC/C(=C/c2ccc(Cl)cc2)C1=O (stereo not drawn)	?	?	.	56
40	CCN(CC)c1nc(-c2ccccn2)nc(-c2ccccc2)c1C#N	-23%	0%[15.4 µM]	-15	31
41	CCSc1nc(-c2ccccc2)c2cc(Cl)ccc2n1	4%	-1%	-2	-4
42	O=C(NN=C1C2CC3CC(C2)CC1C3)c1cccc(S(=O)(=O)N2CCOCC2)c1	8%	-70%[inhibitor]	-27	16
43	CC(CN1CCOCC1)OC(=O)c1ccc(C(C)(C)C)cc1 (stereo not drawn)	-6%	-43%[inhibitor]	10	.
44	CCO[C@@H]1OC(C(=O)N2CCCCCCC2)=C[C@H](C2CCCCC2)[C@H]1CCCO	2%	.	-22	1
45	Cc1ccc(S(=O)(=O)n2nc(OC(=O)C3CCCCC3)cc2N)cc1	2%	-10%	-3	1
46	Cc1ccc(Cn2c(C(C)Nc3nc(-c4ccc(F)cc4)cs3)nc3cc(C(F)(F)F)ccc32)cc1 (stereo not drawn)	4%	-18%	.	-12
47	Cc1ccc(CC2C(=O)N(c3cc(C)ccc3C)C(=O)C2C)cc1 (stereo not drawn)	-8%	-8%	5	5
48	O=C(OCn1nnc2ccccc2c1=O)c1cccnc1	18%	9%	-9	10

no.	Menin MLL FP FL	ClpP mod	Sfp PPTase inh
37	-2.6	0.4%	3%
38	-0.9	0.3%	12%
39	.	-0.6%	.
40	-4.2	.	-1%
41	-1.1	?	4%
42	5.4	-0.3%	12%
43	14	-2.5%	-1%
44	3.4	-0.3%	-1%
45	-0.4	-0.7%	-14%
46	.	0.1%	.
47	-0.9	1.8%	16%
48	4.2	-0.2%	9%

Sorted by molar mass (smallest number first): some entries from above
no.	structure	gsp antagonist	gsp agonist	TRPV1 PAM	TRPML1 inh
40	CCN(CC)c1nc(-c2ccccn2)nc(-c2ccccc2)c1C#N	-23%	0%[15.4 µM]	-15	31
14	CS(=O)(=O)N(CC(=O)Nc1ccccc1C(=O)N1CCOCC1)c1cccc(F)c1	-2%	-38%[inhibitor]	15	-2
35	Cc1nc(-c2nnc(SCC(=O)Nc3cc(C(F)(F)F)cc(C(F)(F)F)c3)n2C)cs1	0%	-3%	-4	-5
46	Cc1ccc(Cn2c(C(C)Nc3nc(-c4ccc(F)cc4)cs3)nc3cc(C(F)(F)F)ccc32)cc1 (stereo not drawn)	4%	-18%	.	-12

no.	Menin MLL FP FL	ClpP mod	Sfp PPTase inh
40	-4.2	.	-1%
14	.	-3.7%	22%
35	1.3	2.8%	4%
46	.	0.1%	.

(next part)
no.	structure	gsp antagonist	gsp agonist	TRPV1 PAM	TRPML1 inh
49	COc1ccc(C(=O)Nc2nnc(S(=O)(=O)N(C)Cc3ccccc3)s2)cc1	-1%	-60%[inhibitor]	17	-7
50	Cc1ccc2nc(NC(=O)C(NS(=O)(=O)c3cccc4nsnc34)C(C)C)sc2c1 (stereo not drawn)	-16%	0%	7	3
51	COC(=O)CNC(=O)COC(=O)c1ccc(OC)c([N+](=O)[O-])c1	-2%	7%[15.4 µM]	3	-15
52	Cn1nnnc1Sc1ccc(C(=O)O)cc1[N+](=O)[O-]	8%	17%[15.4 µM]	10	9

no.	Menin MLL FP FL	ClpP mod	Sfp PPTase inh
49	-7.8	-25%	13%
50	-0.7	0.6%	17%
51	0.3	0.2%	15%
52	0.0	.	17%

From PubChem
